# Sa growth 42C: inhibitors of Staphylococcus aureus growth at 42 °C | relative growth, % (test concentration not listed) | 170,000 tested, 0.53% active | AID 720641 | S. aureus RN4220 growth, OD600, 20 h; stronger effect = lower value;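 active = growth at 42 °C up to 50% and 20 or more points under that at 30 °C, or under 10% at both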;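 note: 300 nL library stock went into each well; scaled to the means of positive and negative controls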
# HCMV NEC inh: disrupts HCMV UL50-UL53 complex binding. HTRF UL50-UL53 interaction, normalized percent inhibition. inhibition, % (no concentration beside the values). 190,000 tested, 0.15% active. AID 1918969;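 active = both replicates at 50% or more, plus weaker picks with an unusually low signal ratio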;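 note: stock transfer was 100 nL into about 20 µL; 0% = negative control wells and 100% = wells with untagged competitor protein; inactives centre near -12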
# GIV-Gai inh: inhibitors of GIV GBA-motif binding to rat Galpha-i3; P08753; percent of control (FP), % (test concentration not listed); AID 1224905; Galpha-i3/FITC-GIV peptide fluorescence polarization, 90 min; stronger effect = lower value; scaled: aluminum fluoride 0%, vehicle 100%; 210,000 tested, 0.42% active;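 active = replicate mean at 85% of control or lower, very high polarization wells dropped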;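 note: wells of about 15 µL received 100 nL stock; the first replicate is given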
# Target sequence (P08753 whole entry, looked up): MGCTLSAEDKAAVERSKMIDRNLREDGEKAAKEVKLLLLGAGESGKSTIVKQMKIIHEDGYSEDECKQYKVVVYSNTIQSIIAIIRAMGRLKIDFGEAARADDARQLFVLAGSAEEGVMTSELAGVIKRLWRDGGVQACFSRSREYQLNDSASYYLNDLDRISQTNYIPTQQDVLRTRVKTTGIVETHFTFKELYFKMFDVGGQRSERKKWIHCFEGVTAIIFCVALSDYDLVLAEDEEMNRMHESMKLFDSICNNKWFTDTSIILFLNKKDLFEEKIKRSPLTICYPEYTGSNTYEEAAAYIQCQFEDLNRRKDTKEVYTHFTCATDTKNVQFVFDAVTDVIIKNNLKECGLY
# Sa growth 42C second temp: further read-out of Sa growth 42C, marked with its call; relative growth, %; measured here: growth at 30 °C;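 optical density after 20 h as mean of two plates; 100% = untreated growth and lower means inhibition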
# The depositor's hits bear a star; . = not tested or not shown; & = joins results of further samples.
SMILES,Sa growth 42C,Sa growth 42C second temp,HCMV NEC inh,GIV-Gai inh
CCOc1ccc(S(=O)(=O)N2CCc3nc(N4CCCCC4)ncc3C2)cc1,.,.,-15,109
CCOC(=O)C1=C(C)N=c2s/c(=C\c3cc([N+](=O)[O-])ccc3N3CCOCC3)c(=O)n2C1c1ccccc1OC (stereo unspecified),.,.,-9,102
CC(C)N(Cc1nc(-c2ccccc2)no1)C(=O)c1cccs1,100,87,-4,102
COC(=O)CC1SC(=O)NC1=Nc1cccc(C)c1 (stereo unspecified),106,69,-4,104
Cc1noc2nc(C)n(CC(=O)NCCC(C)N3CCCC3)c(=O)c12 (stereo unspecified),.,.,-11,104
NC(=O)c1ccsc1NC(=O)Cc1c[nH]c2ccccc12,73,96,-22,.
O=S(=O)(Nc1nc2ccccc2nc1SCCO)c1cc(F)ccc1F,72,66,-7,.
O=C(Cn1c(=O)oc2cc(S(=O)(=O)NC3CCCC3)ccc21)NCc1cccs1,105,94,.,107
CC(C)(C)c1ccc2c(c1)CN(c1ccc(F)cc1)CO2,75,66,-34,106
COC(=O)c1ccc(COC(=O)CNC(=O)C23CC4CC(CC(C4)C2)C3)o1,102,88,-24,.
Cc1cc(NCc2ccccn2)n2nc(C(F)(F)F)c(-c3ccc(F)cc3)c2n1,.,.,-28,100
OCC(O)Cn1c(SCCOc2ccc(Cl)cc2)nc2ccccc21 (stereo unspecified),.,.,-14,106
COc1ccc(C2=NC(c3ccncc3)=Nc3ccc(OC)cc3N2)cc1,101,85,-4,100
Cc1ccc(-c2n[nH]c(=S)n2CCC(=O)O)cc1,98,92,-7,.
CCc1cc2c3c([nH]c2cc1S(=O)(=O)Nc1cccnc1)CCCC3=O,105,79,-24&-23,102&99
FC(F)(F)c1cccc(Nc2nnc(-c3cccnc3)s2)c1,92,85,-4,100
FC(F)(F)c1cccc(Nc2ncnc3sc4c(c23)CCC4)c1,88,80,-11,.
O=C(CCc1ccccc1)N=Nc1c(O)[nH]c2ccccc12,102,99,-25,102
O=c1c2ccccc2n(Cc2ccccc2F)c(=O)n1-c1cccc(F)c1,107,96,-3,107
O=C(NC1CCCc2ccccc21)c1cc(-c2ccccn2)nc2ccccc12 (stereo unspecified),.,.,-13,104
COc1cccc(-c2noc(NC3CCN(Cc4ccccc4)CC3)n2)c1OC,102,91,-15,101
COC(=O)COc1ccc(/C=C2\C(=O)NC(=O)N(c3ccccc3)C2=O)cc1OC,.,.,-1,107
CC(C)c1cc(C(=O)N/N=C/c2ccccc2)n[nH]1,96,84,-24,102
COc1cccc(-c2nn(C)c3sc(C(=O)N4CCCCC4C)cc23)c1 (stereo unspecified),71,45,.,96
CCn1c2ccccc2c2cc(NC(=O)NCc3noc4ccccc34)ccc21,91,83,-6,105
Cc1ccc(-c2nnc(Nc3ccccc3O)c3ccccc23)cc1,102,94,-6,109
Nc1ccc(-c2cnc(-c3ccc(N)cc3)nc2)cc1,116,98,-14,.
O=C(O)CC(c1ccccc1)N1C(=O)c2ccccc2C1=O (stereo unspecified),120,86,.,91
CCCN(C(=O)c1cc2c(Cl)nc3ccccc3c2s1)c1cccc(C)c1,84,99,-14,106
N#Cc1cc(C(=O)c2ccco2)c2nc3ccccc3n2c1N,75,73,-53,.
COc1ccc2nc(-c3ccc([N+](=O)[O-])cc3)nc(-c3cccc([N+](=O)[O-])c3)c2c1,.,.,0,105
Cc1ccc2nc(-c3ccccn3)c(Nc3ccc(F)cc3)n2c1,102,83,-20,103
CC(C)(C)N=Cc1c(O)n(-c2ccccc2Cl)c(=O)c2ccccc12,121,76,-23,.
CSc1nc(C)nc(N/C=C(\C#N)C(=O)C2CC2)n1,101,91,-20,109
Cc1noc2ncnc(N3CC(C)CC(C)C3)c12 (stereo unspecified),.,.,-2,95
COc1ccc(-c2nc(Nc3ccccn3)sc2C)cc1,.,.,-9,98
COc1cc(C(Nc2ccccn2)c2c(C)[nH]c3ccccc23)cc(OC)c1OC (stereo unspecified),99,56,2,105
O=C(OCc1cc(=O)n2nc(C3CCCCC3)sc2n1)c1ccccc1Cl,101,91,.,105
CCOC(=O)Cn1c(=O)n(CC)c2ccccc21,.,.,-10,98
O=c1[nH]c2cc3c(cc2cc1C(c1nnnn1C1CCCC1)N1CC=C(c2ccc(F)cc2)CC1)OCO3 (stereo unspecified),104,106,-31,108
COc1ccc(CN2CCOCC2)cc1C,89,103,-3,105
COc1cccc(-n2nnc3c(sc4nc(C)ccc43)c2=O)c1,.,.,-34,104
C=Cc1ccc(CN2C(=O)N(c3cccc(Cl)c3)S(=O)(=O)c3ccccc32)cc1,102,94,.,106
CC1CCN(CCCNC(=O)c2cn(C)c3ccc(S(=O)(=O)N(C)C4CCCCC4)cc3c2=O)CC1,98,95,7,111
Cc1cccc(NC(=O)C2CCCN2S(=O)(=O)c2cccc3nsnc23)c1C (stereo unspecified),97,82,-119,107
NC(=O)Cc1cc(=O)[nH]c(=S)[nH]1,102,84,-49,.
CCOC(=O)C1CCN(C(=O)c2cccs2)CC1,95,87,-15,106
C=CCN1C(=O)C(=Nc2ccc(C)c(Cl)c2)c2ccccc21,.,.,-6,96
Cc1ccc(OCC(=O)OCc2cc(=O)n3nc(C4CCCCC4)sc3n2)cc1C,103,91,.,103
Cc1ccc(-n2c(CCC(=O)OCC(=O)Nc3cc(C)on3)nc3ccccc3c2=O)cc1,89,96,-24,.
COc1ccc2nc(SCC(=O)Nc3cc(Cl)ccc3OC)[nH]c2c1,.,.,17,107
CCOc1ccc(NC(=O)C(C)CSc2nc3ccc(NC(=O)CC)cc3s2)cc1 (stereo unspecified),.,.,-8,107
O=C(NCCc1ccccc1)C1=NS(=O)(=O)c2ccccc2N1,.,.,-6,99
CCC(CC)c1nnc(NC(=O)CS(=O)(=O)Cc2ccccc2)s1,92,84,-6,102
O=C(COc1ccc(Cl)cc1Cl)N(c1ccccn1)C1CCCCC1,93,105,6,.
COc1ccc(CCNC2=NCCS2)cc1OC,111,115,1,110
CN(C)c1oc(-c2ccccc2)nc1S(=O)(=O)c1ccccc1,83,89,-39,.
c1ccc(C(N2CCOCC2)N2CCOCC2)cc1,104,80,-10,106
Cc1cc(C(=O)CSc2ccc(S(=O)(=O)N(C)C)cn2)c(C)n1-c1ncn[nH]1,89,95,-15,.
O=C(Cn1nc2n(Cc3ccccc3)c(=O)c3ccccc3n2c1=O)c1cccc(Cl)c1,.,.,-13,102

# Rewritten with values under each structure: part of the list above
# Second line of a record: Sa growth 42C, Sa growth 42C second temp, HCMV NEC inh, GIV-Gai inh
O=C(COc1ccc(Cl)cc1Cl)N(c1ccccn1)C1CCCCC1
    93, 105, 6, .
CN(C)c1oc(-c2ccccc2)nc1S(=O)(=O)c1ccccc1
    83, 89, -39, .
COc1ccc2nc(SCC(=O)Nc3cc(Cl)ccc3OC)[nH]c2c1
    ., ., 17, 107
c1ccc(C(N2CCOCC2)N2CCOCC2)cc1
    104, 80, -10, 106
COc1ccc(CN2CCOCC2)cc1C
    89, 103, -3, 105
O=C(NCCc1ccccc1)C1=NS(=O)(=O)c2ccccc2N1
    ., ., -6, 99

# Continued.
SMILES,Sa growth 42C,Sa growth 42C second temp,HCMV NEC inh,GIV-Gai inh
O=C(CSc1nc2ccccc2[nH]1)NCCC1=CCCCC1,110,94,-27,.
CCOC(=O)c1cccc(NC(=O)CCn2nc(C)c(S(=O)(=O)N3CCCCC3)c2C)c1,106,99,.,98
O=C(CN1C(=O)COc2ccccc21)Nc1ccc(Cl)cc1,78,86,.,101
c1ccc(-c2nnc(N3CCOCC3)nc2-c2ccccc2)cc1,103,90,-53,104
OCc1cc(CO)c(O)c(CCc2ccccc2)n1,97,83,-6,98
O=C1CCCc2c1cc(C(=O)Nc1ccc(Cl)cn1)c(=O)n2-c1ccccc1,86,82,-13,104
O=C1c2ccccc2C(Nc2cccc(C(F)(F)F)c2)N1Cc1ccco1 (stereo unspecified),83,74,-18,104
NC(=S)NN=C1CCCCC1,100,71,-14,96
CCN(CC)c1nc(C#N)nc(N(CC)CC)n1,124,88,0,100
CCCOc1ccc(C(=O)NCc2csc(-c3ccccc3)n2)cc1,.,.,-20,101
Cc1ccc(-n2nc(N3CCCN(C(=O)Nc4ccccc4Br)CC3)ccc2=O)cc1,.,.,-55,105
CN(Cc1ccccc1)Cc1c(O)ccc2c(=O)c(-c3ccccc3)coc12,101,74,-12,103
Nc1ccc2nc(SCCOc3ccccc3)sc2c1,97,75,-15,101
CCOC(=O)c1sc2nc3n(c(=O)c2c1C)CCCCC3,94,83,-1,102
COc1ccc2oc(=O)c(C(=O)N3CCCCC3)cc2c1,102,91,-29,.
CC(=O)NCCN=Cc1sc2ccccc2c1O,95,86,-76,100
Cn1cnnc1SCC(=O)N1c2ccccc2-c2c(ssc2=S)C1(C)C,.,.,-25,102
C/C(=N\O)c1nnn(-c2cc(C(F)(F)F)ccc2Cl)c1C,116,90,-20,105
N#Cc1ccccc1CSc1nnc(COc2ccccc2Cl)n1C1CC1,89,77,-12,.
CN1CCN(S(=O)(=O)c2cccc(C(=O)N3CCN(C/C=C/c4ccccc4)CC3)c2)CC1,103,98,1,.

# Retrieved by structure from the entries so far (six):
SMILES,Sa growth 42C,Sa growth 42C second temp,HCMV NEC inh,GIV-Gai inh
CCCOc1ccc(C(=O)NCc2csc(-c3ccccc3)n2)cc1,.,.,-20,101
CN1CCN(S(=O)(=O)c2cccc(C(=O)N3CCN(C/C=C/c4ccccc4)CC3)c2)CC1,103,98,1,.
O=C1c2ccccc2C(Nc2cccc(C(F)(F)F)c2)N1Cc1ccco1 (stereo unspecified),83,74,-18,104
CCN(CC)c1nc(C#N)nc(N(CC)CC)n1,124,88,0,100
Cc1ccc(-n2nc(N3CCCN(C(=O)Nc4ccccc4Br)CC3)ccc2=O)cc1,.,.,-55,105
O=C1CCCc2c1cc(C(=O)Nc1ccc(Cl)cn1)c(=O)n2-c1ccccc1,86,82,-13,104

# Continuation:
SMILES,Sa growth 42C,Sa growth 42C second temp,HCMV NEC inh,GIV-Gai inh
CNc1c(NC(=O)c2ccc(OC)c(OC)c2)c(=O)oc2ccccc12,123,91,-8,103
CN(CCc1noc(-c2ccc(F)cc2)n1)S(C)(=O)=O,.,.,-15,99
COC(=O)C1=C(C)NC2=C(C(=O)CC(c3ccc(OC)c(OC)c3)C2)C1c1ccc(OC)cc1OC (stereo unspecified),.,.,-32,104
CCOc1ccc(C2c3c(-c4ccccc4O)n[nH]c3C(=O)N2Cc2cccnc2)cc1OC (stereo unspecified),108,71,-33,101
COc1ccc(C2OC(=O)Cc3cc(OC)c(OC)cc32)cc1 (stereo unspecified),112,90,-6,.
O=C(CSc1nc2c(sc3ccccc32)c(=O)n1Cc1ccccc1)NCC1CCCO1 (stereo unspecified),110,93,6,101
CCC1CCCCN1C(=O)CSc1nc(-c2ccc(OC)c(OC)c2)cc(C(F)(F)F)n1 (stereo unspecified),98,94,-20,105
O=C1COc2ccc(S(=O)(=O)N3CCCC(C(=O)N4CCOCC4)C3)cc2N1 (stereo unspecified),.,.,-10,110
O=C(COc1ccccc1)NNc1nc2c(F)cccc2s1,114,116,-19,99
Cc1cc(NS(=O)(=O)c2ccc(Cl)s2)no1,100,80,4,102
CCCN(C(=O)Cn1nc(Cc2cccnc2)c2ccccc2c1=O)c1ccc(C(C)C)cc1,79,83,8,106
C=C(C)CSc1nnc(-c2ccc(OC)cc2)n1-c1ccccc1,.,.,-17,106
Cc1ccc(-c2ncc3c(=O)n(CC(=O)O)c(=O)n(C)c3n2)cc1,.,.,-22,93
COc1ccccc1N1C(=O)C(Cc2ccccc2)N=C1N1CCOCC1 (stereo unspecified),97,87,-25,100
O=C(Nc1ccc(OCc2cc(=O)n3[nH]cnc3n2)cc1)c1ccc(F)cc1,.,.,-20,103
CC(C)(C)CC(=O)NC(C)(C)C,98,93,-13,103
CC(=O)c1ccc(NC(=O)c2ccc3c(c2)nnn3C2CCCC2)cc1,91,98,.,111
O=C(O)c1ccccc1-c1nnc2c(Cl)cc(C(F)(F)F)cn12,.,.,-22,99
O=C(CSCc1nc(-c2cccc(F)c2)no1)N1CCNC1=O,.,.,-1,101
CCCN(CCC)CCNC(=O)c1cc2c(-c3ccc(Cl)cc3)nn(C)c2s1,101,94,-2,103
Cc1cc2nc(-c3cccc(NC(=O)C(C)C)c3C)oc2cc1C,112,90,.,100
c1ccc2c(c1)CC(N1CCCCC1)c1ccccc1N2 (stereo unspecified),106,79,12,100
COC(=O)C1=C(C(=O)c2ccccc2)C(c2ccc(C(=O)OC)cc2)n2nnnc2N1 (stereo unspecified),98,90,.,95
CCCc1nc(-c2cc3ccc(C)cc3nc2NC2CCCC2)no1,.,.,0,104
CC(C)CCN1C(=O)c2ccc(C(=O)OCC#N)cc2C1=O,82,91,-78,.
COc1ccc(OC)c(-c2nnc3n(CCc4ccccc4)c(=O)c4ccccc4n23)c1,102,95,-8,101
COc1ccc(Oc2ccc(NC(=O)Cc3cccs3)cn2)cc1,92,81,-16,98
COc1ccc(NC(=O)C2CC2C)c(OC)c1 (stereo unspecified),85,90,-17,.
CC(=O)Nc1ccc(-c2csc(C)n2)cc1,96,91,.,112
O=C(O)c1ccc(C2SCCCS2)cc1,89,88,-20,.

# Bioassay records deposited in PubChem BioAssay by ICCB-Longwood Screening Facility, Harvard Medical School.
